TRPML1 blocker – qHTS for Inhibitors of the Human Mucolipin Transient Receptor Potential 1 (TRPML1). Mucolipin-1 (Homo sapiens), Q9GZU1. TRPML1-inducible cells, Ca2+ dye fluorescence, FDSS; active compounds read low; inhibition of EC80 agonist-evoked calcium signal. activity change, negative = inhibition, % (concentration not given with the values). 390,000 compounds, 0.02% hits. AID 624415, 2012; in the data active means activity change below about -50%; inconclusive means about -30% to -50%; inactive means above about -30%;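 further: stimulus is agonist 54-4 at its EC80 concentration; on the % scale 0 is the no-effect control and ±100 the full control effect; the text of the record puts the active cut at -80%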
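Tet-induced TRPML1-DL cells loaded with Ca8 no-wash calcium dye were read kinetically on FDSS. Compound addition was followed by EC80 agonist 54-4 (4 uM final); inhibition was read over 110 s.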
TRPV1 potentiator – HTS Assay for Compounds that Act as Potentiators of the Vanilloid Receptor 1; Transient receptor potential cation channel subfamily V member 1 (Homo sapiens), Q8NER1; TRPV1-expressing cells, Fluo-8 calcium influx, capsaicin EC20 potentiation; host cell line not named in the record; control for the full effect not named in the record; potentiation, % at 8.33 µM; 320,000 compounds, 0.02% hits; active means potentiation above 80%; inconclusive means 30% to 80%; inactive means below 30%; further: 0% is about no effect
Target sequence (Q8NER1 whole entry, looked up): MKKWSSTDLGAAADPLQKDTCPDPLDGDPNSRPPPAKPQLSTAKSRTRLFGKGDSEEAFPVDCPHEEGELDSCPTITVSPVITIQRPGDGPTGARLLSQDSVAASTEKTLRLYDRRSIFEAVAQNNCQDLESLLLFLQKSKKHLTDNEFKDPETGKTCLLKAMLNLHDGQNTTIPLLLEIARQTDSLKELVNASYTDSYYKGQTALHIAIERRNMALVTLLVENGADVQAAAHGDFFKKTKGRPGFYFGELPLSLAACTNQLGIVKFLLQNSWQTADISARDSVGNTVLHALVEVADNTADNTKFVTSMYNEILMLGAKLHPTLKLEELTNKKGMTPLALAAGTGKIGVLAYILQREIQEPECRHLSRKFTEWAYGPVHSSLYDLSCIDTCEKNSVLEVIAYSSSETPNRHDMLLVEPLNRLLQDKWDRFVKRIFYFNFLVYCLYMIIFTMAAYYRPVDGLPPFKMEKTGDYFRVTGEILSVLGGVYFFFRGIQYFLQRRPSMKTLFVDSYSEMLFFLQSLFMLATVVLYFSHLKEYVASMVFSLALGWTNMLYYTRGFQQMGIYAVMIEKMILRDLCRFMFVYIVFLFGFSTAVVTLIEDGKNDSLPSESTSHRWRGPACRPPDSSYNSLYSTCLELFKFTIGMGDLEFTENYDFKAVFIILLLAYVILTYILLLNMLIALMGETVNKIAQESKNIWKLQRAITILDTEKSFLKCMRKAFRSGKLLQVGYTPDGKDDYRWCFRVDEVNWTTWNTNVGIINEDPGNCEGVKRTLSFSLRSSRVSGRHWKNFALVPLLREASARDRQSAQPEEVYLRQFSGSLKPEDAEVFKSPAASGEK
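Fluo-8 calcium influx in TRPV1-expressing cells, kinetic read (ex 480/em 520 nm). Compound added and read 3 min for agonist activity, followed by capsaicin at EC20 final and 2 min further read for enhancement.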
Menin MLL FP FL – qHTS Assay for Inhibitors Targeting the Menin-MLL Interaction in MLL Related Leukemias: Competition With Fluorescein Labeled MLL-derived Peptide | Fluorescence polarization, fluorescein-MLL peptide displacement from menin | FP activity change, % at 61.4 µM | 290,000 tested, under 10 active; inconclusive = falling polarisation curve, or a change in total fluorescence; inactive = total fluorescence flat and polarisation flat or rising; no compound was filed as active; the % refers to the polarisation; negative = inhibition;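 further: % of control where 0% means no effect; inhibitors lower the polarisation; unlabelled MLL peptide was the positive control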
gsp ag – qHTS for Agonist of gsp, the Etiologic Mutation Responsible for Fibrous Dysplasia/McCune-Albright Syndrome: qHTS | gsp mutant cells, cAMP HTRF, 30 min; control for the full effect not named in the record | 340,000 compounds, 0.13% hits | Potency, µM (highest dose often 76.9 µM), for inactives: at the top dose activation (cAMP increase), most hits filed as activators; active = well fitted activation curve with a large enough effect; inconclusive = small, poorly fitted or top-dose-only effect, or another doubt; inactive = no such curve, though single readings can be large or run the other way; cell line not stated here;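 further: phosphodiesterase inhibitor Ro 20-1724 added with compounds to block cAMP breakdown; potency means the concentration at half of the fitted maximal effect; nearly all actives have a fitted effect of over 60% in size; about a fifth of the inactives were tested at one dose only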
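Cells in DMEM/10% FBS with G418 were pretreated with compounds in DMSO plus […] (300 uM stock) for 30 min at 37C. cAMP was measured by HTRF (cAMP-d2 plus anti-cAMP antibody-K) after 30 min at room temperature.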
gsp antagonist – qHTS for Antagonists of gsp, the Etiologic Mutation Responsible for Fibrous Dysplasia/McCune-Albright Syndrome: qHTS; gsp-mutant cells, cAMP HTRF, 30 min; control for the full effect not named in the record; Potency, µM (top dose mostly 76.9 µM), inactives show at the top dose activity change, negative = inhibition, hits mostly inhibitors; 340,000 compounds, 0.4% hits; active = falling curve of any shape with a large fitted effect; inconclusive = falling curve, mostly with a smaller effect; inactive = flat or rising curve; cell line not stated here;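 further: intracellular cAMP measured with PDE inhibitor Ro 20-1724 present during compound exposure; potency means the concentration at half of the fitted maximal effect; on the % scale 0 is the no-effect control and ±100 the full control effect; nearly all actives have a fitted effect of over 65% in size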
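G418-selected cells were plated in DMEM/10% FBS for 16-24 h at 37C, then treated with compounds plus the PDE inhibitor […] (300 uM solution added) for 30 min at 37C. Intracellular cAMP was measured by HTRF after 30 min lysis at room temperature.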
Sfp PPTase inh – qHTS Assay for Inhibitors of Bacillus subtilis Sfp phosphopantetheinyl transferase (PPTase); 4'-phosphopantetheinyl transferase ffp (Bacillus subtilis), Q9F4F7; Biochemical Sfp PPTase activity, qHTS; Potency, µM, for the others: max response, negative = inhibition, usual class: inhibitors; 310,000 compounds, 3.5% hits; AID 1490, 2009; active means well fitted inhibition curve with a large enough effect; inconclusive means small, poorly fitted or top-dose-only effect, or another doubt; inactive means no such curve, though single readings can be large or run the other way;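 further: the enzyme is Sfp with the accession as filed and its product quenches rhodamine fluorescence; potency means the concentration at half of the fitted maximal effect; 0% = enzyme reaction without inhibitor and -100% = no enzyme wells; top concentration of the series not given in the record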
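Step 1, compound plus 15 nM Sfp-PPTase, 15 min, room temperature. Step 2, add rhodamine-CoA (5 uM) and BHQ-2-YbbR (12.5 uM). Step 3, read 525/598 nm fluorescence at 0 and 30 min.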
ClpP mod – qHTS Assay for Activators of ClpP. AID 651965, 2013. purified B. subtilis ClpP, FRET peptide cleavage, 20 min. ATP-dependent Clp protease proteolytic subunit (Bacillus subtilis (strain 168)), P80244. Potency, µM (titrated, usually from 57.5 µM), without a hit: top-dose activity change, negative = active. 340,000 compounds, 1.9% hits; active = well fitted falling curve with a large enough effect; inconclusive = small, poorly fitted or top-dose-only effect; inactive = no such curve, though single readings can be large or run the other way; further: potency means the concentration at half of the fitted maximal effect; the source files actives as falling curves though it sought activators and does not explain the sign; nearly all actives have a fitted effect of over 65% in size; many hits overshoot -100%
Target sequence (P80244 whole entry, looked up): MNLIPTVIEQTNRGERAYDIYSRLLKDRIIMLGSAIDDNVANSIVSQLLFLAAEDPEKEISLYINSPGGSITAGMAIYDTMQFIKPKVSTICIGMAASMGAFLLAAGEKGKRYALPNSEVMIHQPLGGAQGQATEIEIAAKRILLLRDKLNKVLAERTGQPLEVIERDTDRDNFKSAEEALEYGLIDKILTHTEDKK
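Purified B. subtilis ClpP, 10 microg/mL final in Tris/HCl pH8 with KCl, BSA, glycerol and Tween-20, cleaved an Abz/nitrotyrosine-quenched decapeptide. Fluorescence (ex 320, em 430) was read at 0 and 20 min at room temperature. Delta was normalized to 5.8 microM ADEP and DMSO/no-enzyme controls.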
* hit, by the source's call; u = inconclusive; x = no result given; [ ] = another dose, or the depositor's remark.

SMILES	TRPML1 blocker	TRPV1 potentiator	Menin MLL FP FL	gsp ag	gsp antagonist	Sfp PPTase inh	ClpP mod
Cc1ccc(Cn2nc(C)c(NC(=O)c3nn(C)cc3Cl)c2C)cc1	3.7	-8.8	-0.2	23.6%	-2.8%	-20.2%	-4.1%
CCOC(=O)C1=C(C)Nc2nnnn2C1c1cccc(OC)c1OC (stereo not given)	6.0	-2.8	4.9	-19.4%	-14.8%	7.4%	-1.5%
Nc1ccc2oc(=O)c(-c3ccccc3)cc2c1	4.5	-15.3	5.1	13.0%	-16.4%	-0.2%	-1.0%
O=C(CN1CCN(S(=O)(=O)c2ccc3c(c2)OCCO3)CC1)Nc1ccccc1Br	-3.7	x	x	2.9%	-9.0%	x	-0.2%
O=C(NC1CCOc2ccccc21)C1CCCC1 (stereo not given)	36.5	-11.2	0.8	-23.2%	2.8%	17.1%	x
COc1ccc(/C=N/NC(=O)c2cccc([N+](=O)[O-])c2)cc1OC(=O)c1ccccc1	2.6	4.3	3.0	6.9%	5.7%	-2.4%	0.0%
CCOC(=O)Cc1nc2ccccc2n(CC#N)c1=O	-14.8	12.7	u	-26.3%	13.9%	15.1%	x
Cc1cc(C)n(CC(=O)NNC(=O)COc2ccc(F)cc2Br)n1	15.2	-16.2	x	u	9.7%	x	-1.5%
CC(=O)Nc1ccc(/C=C(\C#N)C(=O)NCc2ccccc2)cc1	49.2	-10.4	2.4	-13.5%	0.1%	15.0%	-1.7%
COc1ccc(C(N)=O)c(OCC(=O)Nc2cc(C)on2)c1	-8.7	-14.6	x	u	-4.6%	x	-2.7%
Cc1cc2c(cc1S(=O)(=O)N1CCOCC1)NC(=O)CO2	18.0	-0.7	0.7	20.7%	11.2%	5.1%	x
O=C(N/N=C/c1ccccn1)c1ccc([N+](=O)[O-])cc1	-4.4	3.9	3.7	0.9%[15.4 µM]	2.8%	-10.3%	x
O=C(COC(=O)c1ccc[nH]c1=O)NC1CC1	-8.6	x	x	6.4%	-0.9%	x	-5.6%
O=C(CSC1=NS(=O)(=O)c2cc(Cl)ccc2N1)NCc1ccccc1	-9.2	27.4	x	24.1%	7.6%	x	-0.5%
NC(=O)COc1ccc(Cc2ncc(C(F)(F)F)cc2Cl)cc1	4.1	1.5	-0.2	10.7%[15.4 µM]	3.0%	17.0%	x
CC(=O)Oc1c(C)cc(Cl)cc1C(=O)Nc1ccc([N+](=O)[O-])cc1Cl	13.6	-5.7	-0.1	-26.4%	3.55µM*	11.1%	2.0%
CC(Oc1ccc(Cl)cc1Cl)C(=O)NCCC1=CCCCC1 (stereo not given)	63.3	7.6	8.1	-40.0%[inhibitor]	-4.9%	8.6%	-3.0%
CN(C)/N=C/c1ccc(Sc2ccccc2[N+](=O)[O-])o1	0.3	-8.8	-1.1	1.5%	-4.4%	-3.4%	x
COCCOc1ccc(C(F)(F)F)cc1NC(=O)c1ccc(C)cc1	2.2	-8.5	1.0	9.0%[15.4 µM]	-2.2%	8.4%	u
Cc1nc(NS(=O)(=O)c2ccccc2)sc1C(C)(C)C	15.3	14.0	-6.6	-39.5%[inhibitor]	-1.4%	-16.1%	-0.7%
Cc1cccc(CN2CCN(c3ccccn3)CC2)c1	7.3	x	x	-4.8%	1.1%	x	-1.6%
O=C(NCCCN1CCCC1=O)c1cncc(Br)c1	-13.2	-4.1	2.6	0.0%	11.8%	6.3%	-3.6%
CC1CCN(S(=O)(=O)c2c[nH]c(=O)[nH]c2=O)CC1	-7.6	24.5	x	10.8%[15.4 µM]	9.5%	x	x
O=c1c(Cl)c(Cl)cnn1Cc1ccc(F)cc1	6.1	-13.9	-5.3	27.9%	-22.7%	0.9%	-0.1%
O=C(O)CC12CC3CC(C1)CC(n1ncc(N4CCC5(CC4)OCCO5)c(Cl)c1=O)(C3)C2	4.7	13.7	1.8	-6.5%	4.9%	6.9%	1.3%

Compound profiles, as listed above. Values in the order: TRPML1 blocker	TRPV1 potentiator	Menin MLL FP FL	gsp ag	gsp antagonist	Sfp PPTase inh	ClpP mod
`O=C(N/N=C/c1ccccn1)c1ccc([N+](=O)[O-])cc1` is listed as -4.4	3.9	3.7	0.9%[15.4 µM]	2.8%	-10.3%	x
`NC(=O)COc1ccc(Cc2ncc(C(F)(F)F)cc2Cl)cc1` is listed as 4.1	1.5	-0.2	10.7%[15.4 µM]	3.0%	17.0%	x
`Cc1cc2c(cc1S(=O)(=O)N1CCOCC1)NC(=O)CO2` is listed as 18.0	-0.7	0.7	20.7%	11.2%	5.1%	x

Next part:
SMILES	TRPML1 blocker	TRPV1 potentiator	Menin MLL FP FL	gsp ag	gsp antagonist	Sfp PPTase inh	ClpP mod
C/C(Cn1nc([N+](=O)[O-])cc1C)=N\NC(=O)COc1c(Cl)cc(Cl)cc1Cl	34.5	-12.8	2.8	-12.8%	-9.4%	5.3%	-0.3%
COc1ccc([N+](=O)[O-])cc1N(CC(=O)NCCCOC(C)C)S(C)(=O)=O	-14.1	14.0	0.4	-5.5%	7.7%	5.4%	x
Cc1ccccc1CS(=O)(=O)CCC(=O)O	34.3	-6.3	-1.5	u	3.0%	19.0%	-0.1%
O=C(NCCCc1ccccc1)c1ccccc1O	4.8	3.5	0.1	-59.7%[inhibitor]	0.0%	-10.7%	u
C/C(=N\NC(=O)C1CC1)c1ccc(Cl)c(Cl)c1	4.7	-15.6	-0.3	-35.9%[inhibitor]	-1.3%	26.5%	-1.8%
O=C(O)c1ccc(-n2ccnc2)c([N+](=O)[O-])c1	-20.5	0.5	4.4	2.5%	-5.7%	19.6%	-1.3%
Cc1ccc(C2(C)NC(=O)N(CC(=O)Nc3ccc(S(=O)(=O)Nc4nccs4)cc3)C2=O)cc1 (stereo not given)	-0.4	-4.1	x	0.7%	10.0%	x	-2.6%
CCN(CC)C(=O)C[n+]1ccc(C(N)=O)cc1	-1.4	4.6	-1.2	14.6%	13.5%	-1.8%	0.3%
S=C(Nc1ccc(Br)cc1Cl)NC1CCN(Cc2ccccc2)CC1	17.7	-11.6	-5.0	2.0%	-2.9%	19.6%	x
Cc1cc([N+](=O)[O-])nn1CC(=O)Nc1sc2c(c1C(N)=O)CCCC2	-7.1	-2.6	-0.6	-7.8%[15.4 µM]	-14.1%	-15.1%	x
CCCCN(CC)Cc1c(C)[nH]c2ccccc2c1=O	0.5	-5.4	7.8	-34.4%[inhibitor]	4.4%	15.5%	-3.3%
O=C(c1ccc(N2CCCCS2(=O)=O)cc1)N1CCN(c2ccc(N3CCOCC3)nn2)CC1	-4.3	3.5	0.6	-31.1%	4.9%	4.6%	5.4%
CC(=O)O[C@@H]1C[C@H]2C(C)(C)C(=O)C=C[C@]2(C)[C@H]2CC[C@@]3(C)[C@H](c4ccoc4)OC(=O)[C@H]4O[C@]43[C@@]21C	65.0	-6.9	-0.5	-23.5%	-18.1%	-6.5%	-0.8%
NNC(=O)c1ccc(CN2CCCCC2)o1	2.3	-10.8	-1.2	-45.2%	12.5%	1.6%	4.4%
CC1CCCC(NCC(=O)Nc2ccc(C(N)=O)cc2)C1C (stereo not given)	-10.2	-2.9	1.9	6.6%[15.4 µM]	0.9%	7.5%	x
CC(=O)Nc1ccc(NC(=O)c2cc(-c3ccccc3)nc3ccccc23)cc1	6.7	5.5	3.6	-4.2%[15.4 µM]	-16.3%	8.5%	0.9%
CCOC(=O)N1CCc2c(sc(NC(=O)c3ccc(Cl)s3)c2C(N)=O)C1	x	23.7	19.7	x	x	50.1µM*	x
COc1cccc(-c2ccc(SCC(=O)N3CCc4ccccc43)nn2)c1	x	25.1	3.9	x	x	-15.9%	x
COc1cc(OC)cc(C(=O)NNC(=O)c2ccc3c(c2)OCCO3)c1	6.8	x	x	u	11.4%	x	-2.1%
O=c1[nH]c2ccccc2n1Cc1ccc(Cl)cc1	6.7	3.8	-0.3	1.7%	-11.1%	7.7%	1.3%
COc1ccc2c3n(nc2c1)CCN=C3c1cc(Cl)c(N)c(Cl)c1	12.6	-10.1	x	-7.9%	u	x	-1.5%
COCCCNC(=S)N/N=C/c1ccc(OC)cc1	2.0	4.3	-2.3	7.3%[15.4 µM]	4.1%	-2.6%	x
COc1ccc(CCNS(=O)(=O)c2cc(C(=O)O)c(Cl)cc2Cl)cc1	-2.0	-5.6	-0.3	u	2.8%	13.4%	0.4%
COc1ccccc1CNC(=O)CCCNC(=O)c1ccc(Cl)cc1	2.3	-10.4	3.6	6.3%[15.4 µM]	9.3%	14.5%	x
O=C(c1cccc(S(=O)(=O)Nc2ccccc2F)c1)N1CCN(c2ccccc2F)CC1	-6.9	2.8	1.5	-15.5%[15.4 µM]	x	-1.9%	x
CC(C)(C#N)Cc1cc(CC(C)(C)C#N)cc(C(C)(C)C)c1	29.6	-11.5	0.6	-36.3%[inhibitor]	-9.0%	6.2%	2.1%
Cc1ccnc(NC(=O)c2ccc(Cl)c(NC(=O)C(C)Oc3ccccc3)c2)c1 (stereo not given)	28.1	-15.1	8.9	-15.8%[15.4 µM]	-31.8%	0.0%	x
COc1ccc(C(=O)NCN2CCN(c3ccccc3)CC2)cc1OC	2.4	7.7	x	-36.1%[inhibitor]	-4.1%	x	-0.2%
Cn1cccc1CC(=O)NNC(=O)Nc1cccc(Cl)c1	-1.5	3.4	3.9	-26.9%	10.5%	13.6%	0.9%
C[C@@H]1CN([C@H](C)CO)C(=O)CCCn2nncc2CO[C@H]1CN(C)Cc1ccc(C(F)(F)F)cc1	-2.4	x	x	-162.0%[inhibitor]	x	x	1.3%
